Compound activity (PubChem)
T cruzi repl = T. cruzi replication inhibition; T. cruzi beta-gal in NIH3T3, luminescence, 90 h; inhibition, % (test concentration not listed); 300,000 tested, 1.4% active; AID 1885;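 active = mean inhibition across valid replicates above about 55%, limit read from the data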;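 note: signal also drops with host cell toxicity which is not excluded here; 0% = plate median of DMSO wells and 100% = zero luminescence signal; higher percent means less beta-gal luminescence so fewer parasites; stock transfer was 50 nL into about 50 µL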
Beta apoptosis = beta cell apoptosis inhibition. 300,000 tested, 0.8% active. INS-1E cytokine-induced death, ATP luminescence, 48 h; percent of positive-control rescue, neutral wells zero. protection from apoptosis, % (test concentration not listed). AID 435005;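 active = all replicates at 75% or more, or half of them and the mean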;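 note: 0% = cytokine-treated negative control wells and 100% = positive control rescue; higher means more ATP so stronger rescue from cytokine killing; wells of about 40 µL received 100 nL stock; the first replicate is given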
rRNA inh HTS = selective bacterial rRNA inhibition in E. coli. E. coli WT GFP vs humanized-ribosome RFP mutants, fluorescence, 24 h; stronger effect = lower value; DMSO median 0, no signal -100. GFP signal change (wild-type ribosome), % (test concentration not listed). AID 720706. 350,000 tested, 1.6% active;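 active = significant combined selectivity score with lowered wild-type GFP, culture density cut under 30%, mutant RFP and density less affected; inactive = any of these conditions unmet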; note: one replicate is shown; some compounds called inactive have numbers as strong as hits
MLL AF4-AF9 inh = MLL-AF4/AF9 protein interaction inhibition | inhibition, % at 10 µM | AlphaScreen, biotin-AF4 peptide binding to FLAG-AF9 | AID 651704 | 350,000 tested, 0.47% active | P42568;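 active = every replicate reaching a set inhibition limit, whatever the replicate mean, cut at about 25% in these data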;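 note: 0% = plate neutral control median and 100% = total signal loss; the record names both 10 and 1 µM as test concentration; the first replicate is given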
Target sequence (P42568 whole entry, looked up): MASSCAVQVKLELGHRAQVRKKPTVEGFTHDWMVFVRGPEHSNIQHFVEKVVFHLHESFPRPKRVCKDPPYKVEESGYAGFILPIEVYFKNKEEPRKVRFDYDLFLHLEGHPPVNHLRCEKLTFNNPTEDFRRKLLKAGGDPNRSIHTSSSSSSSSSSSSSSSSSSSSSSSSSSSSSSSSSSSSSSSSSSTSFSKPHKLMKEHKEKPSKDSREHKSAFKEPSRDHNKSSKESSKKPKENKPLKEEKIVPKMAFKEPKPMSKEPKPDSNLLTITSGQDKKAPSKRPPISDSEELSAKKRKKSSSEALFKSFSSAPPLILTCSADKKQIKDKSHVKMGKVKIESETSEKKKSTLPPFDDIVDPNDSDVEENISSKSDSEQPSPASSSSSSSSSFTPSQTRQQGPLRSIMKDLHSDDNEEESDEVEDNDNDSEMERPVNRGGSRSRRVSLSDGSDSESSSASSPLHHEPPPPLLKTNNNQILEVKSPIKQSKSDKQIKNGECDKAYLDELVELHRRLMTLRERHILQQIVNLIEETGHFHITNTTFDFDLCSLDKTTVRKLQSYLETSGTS
UCH37 DUB inh = human UCH37 deubiquitinating enzyme inhibition; purified proteasome/UCH37, Ub-AMC cleavage fluorescence; Q9Y5K5; AID 588478; 330,000 tested, 0.33% active; inhibition, % (concentration not given with the values);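 active = mean of two replicates above 20%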;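 note: 0% = compound-free wells with enzyme and 100% = wells lacking proteasome; stock transfer was 100 nL into about 20 µL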
Target sequence (Q9Y5K5 whole entry, looked up): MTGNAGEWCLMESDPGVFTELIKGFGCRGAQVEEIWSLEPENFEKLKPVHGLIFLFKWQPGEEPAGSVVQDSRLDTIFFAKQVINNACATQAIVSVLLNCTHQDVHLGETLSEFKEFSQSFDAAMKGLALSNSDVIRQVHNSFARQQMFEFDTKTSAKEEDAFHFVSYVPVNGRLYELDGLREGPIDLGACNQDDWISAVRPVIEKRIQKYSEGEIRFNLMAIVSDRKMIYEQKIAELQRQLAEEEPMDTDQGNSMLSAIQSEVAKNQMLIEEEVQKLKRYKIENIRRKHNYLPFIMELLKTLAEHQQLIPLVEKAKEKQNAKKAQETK
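assay system = human UCH37 enzyme supplied as purified proteasome complex | amount = proteasome at 0.15 nM in the dispensed enzyme solution | schedule = 30 min compound-proteasome preincubation then 25 min substrate reaction, room temperature | measured by = fluorescence, ex 355 nm, em 460 nm | benchmarks = no-proteasome wells (full inhibition) and compound-free wells (no inhibition)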
FGF22 binding = binders of recombinant human FGF22 by thermal shift | calls only at 9.99 µM | Q9HCT0 | SYPRO orange fluorescence; percent of sucrose octasulfate shift, DMSO zero | 340,000 tested, 1.5% active;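 active = melting point raised past a set limit in the mean and every replicate; three in four hits are not shown here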
Target sequence (Q9HCT0 whole entry, looked up): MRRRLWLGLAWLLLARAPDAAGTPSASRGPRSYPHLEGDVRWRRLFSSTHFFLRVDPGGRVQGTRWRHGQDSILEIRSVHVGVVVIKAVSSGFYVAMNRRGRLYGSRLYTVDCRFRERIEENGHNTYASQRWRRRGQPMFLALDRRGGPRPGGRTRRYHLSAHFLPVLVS
E coli growth = E. coli growth inhibition. Escherichia coli growth, OD600, 23 h; stronger effect = lower value. 330,000 tested, 0.21% active. OD600 absorbance (no concentration beside the values). AID 1053175;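 active = OD600 absorbance below the run mean of sample wells minus 3.6 SD, in any replicate, cut at about 0.56 in these data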;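 note: stock transfer was 300 nL into about 60 µL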
A1 inh = inhibitors of the anti-apoptotic protein A1, read as caspase activation; AID 2462; caspase activation, % (no concentration beside the values); 330,000 tested, 0.066% active; MEF A1-2A-BIM cells, Caspase-Glo 3/7 luminescence, 3 h; percent of clofoctol response, vehicle zero;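 active = over half of replicate activation scores above 10%, or exactly half above 10 with the replicate mean above 10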;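 note: wells of about 30 µL received 50 nL stock; many hits fall short of the cut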
rRNA inh HTS OD600 = recorded beside rRNA inh HTS, whose call it bears; OD600 change, %; measured here: OD600 growth;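 optical density of the mix in the first replicate; 0 = DMSO median and -100 = no signal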
rRNA inh HTS RFP = recorded beside rRNA inh HTS, whose call it bears; RFP signal change, %; measured here: RFP humanized mutant strains;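 first replicate; 0 = DMSO median and -100 = no signal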
The depositor's hits bear a star; i = inactive; x = not tested or not shown. These rows are one share of the data; the hit share may differ from the screen's.

SMILES	T cruzi repl	Beta apoptosis	rRNA inh HTS	rRNA inh HTS OD600	rRNA inh HTS RFP	MLL AF4-AF9 inh	UCH37 DUB inh	FGF22 binding	E coli growth	A1 inh
C/C(CC(=O)Nc1ccc(C)c(Cl)c1)=N\NC(=O)c1cccc(O)c1	-7	-6	-5	-4	-2.6	4.0	x	i	x	-1.1
CN(CCOc1ccc(Cl)cc1)C(=O)C1CCN(C(=O)c2ccc(F)cc2)CC1	11	x	-12	-13	0.2	0.0	0.7	i	0.7	0.0
COC(=O)C1=CN(Cc2ccc(OC)c(OC)c2)C=C(C(=O)OC)C1c1cccs1	65*	x	-4	-22	6.9	-5.2	-105	i	0.71	x
OC1(c2cccc(C(F)(F)F)c2)CCN(CCN2CCCCC2)CC1	-4	x	8	2	4.0	2.0	3.4	i	0.64	0.2
O=C(CSc1nnc(CNC(=O)c2ccccc2F)o1)NCc1ccco1	0	1	4	6	-1.2	-0.2	5.7	i	0.66	1.2
O=C(OCC1CC(c2ccccc2)=NO1)c1ccco1 (centres undefined)	-9	3	15	9	0.2	x	2.9	i	0.64	1.0
CCn1cc(C(=O)N2CCN(c3cccc(C)c3C)CC2)c(=O)c2ccc(C)nc21	-9	-2	-40	-78	-23	-2.4	5.0	x	0.42*	0.2
CN(C(=O)COC(=O)c1ccc(NS(=O)(=O)c2cccs2)cc1)C1CCCCC1	5	-8	x	x	x	-0.2	2.7	i	0.65	-0.6
Cc1csc(NC(=O)CSc2nnc(-c3cccs3)n2C)n1	5	-3	x	x	x	x	0.7	x	0.65	-0.1
Cc1ccccc1N=Nc1ccc(O)c2ncccc12	42	99*	x	x	x	2.2	3.1	i	0.74	-3.5
Cn1nnnc1Sc1ncnc2scc(-c3ccccc3Br)c12	x	-33	-21	-40	2.8	0.1	1.9	i	0.66	0.3
COC(=O)c1c(C)[nH]c(C(=O)CSc2ccc(Cl)cc2)c1C	22	4	x	x	x	x	x	x	0.72	-0.7
Nc1nonc1C(=O)N1CCCC1	-7	-3	11	9	4.0	1.3	3.4	i	0.7	0.1
COc1ccccc1CCNC(=O)NC1CCCCC1	7	-2	2	1	-1.1	0.6	5.4	i	0.69	-0.3
COc1ccc(NC(=O)CCCN2C(=O)C(c3ccccc3)Oc3cccnc32)c(OC)c1 (centres undefined)	3	-7	-3	-3	-0.5	1.5	1.7	i	0.63	0.3
CCOC(=O)Nc1ccc2nc3n(c(=O)c2c1)CCCCC3	-2	-2	9	12	1.6	-5.0	-2.9	i	0.69	-0.1
C=CCN1C(=O)CS/C1=N\N=C\c1cccc([N+](=O)[O-])c1	-5	3	-3	3	-2.6	3.3	x	i	x	0.2
Cc1ccc(OCC(O)CN2CCN(CC(O)COc3ccc(C)cc3Cl)CC2)c(Cl)c1 (centres undefined)	11	15	x	x	x	x	3.0	x	0.68	0.2
Cc1ccccc1-n1nc(C)c2cc(C(=O)NC3CC3)sc21	8	x	x	x	x	x	4.0	x	0.72	1.2
CCO[C@H]1OC(C(=O)N2CCN(C)CC2)=C[C@@H](c2coc3ccccc3c2=O)[C@@H]1CCCO	-11	-3	-4	3	2.9	-5.0	-3.6	i	x	-0.1
CN1C(=O)/C(=C\c2ccc(N(C)C)cc2)OC1=S	1	-7	21	8	0.6	-6.5	x	i	x	0.0
Cc1cccc(-c2csc(N)c2C(=O)OC(C)C)c1	-6	1	x	x	x	x	5.1	x	0.7	0.2
Cc1ccc(-c2cc(Cc3ccncc3)c(=O)[nH]n2)cc1	-11	x	-3	0	2.5	0.6	5.0	i	0.68	0.0
Cc1csc(NC(=O)c2c(O)c3c(n(CC(C)C)c2=O)CCCC3)n1	15	0	x	x	x	x	-0.8	x	0.7	-0.6
CC(=O)NC(C)C(=O)OCC(=O)c1ccc(-c2ccccc2)cc1 (centres undefined)	0	-4	-2	-12	-0.4	-1.7	5.8	i	0.71	-3.4
COc1ccc(CNC(=O)C(OC(=O)c2nsc(Cl)c2Cl)C(C)C)cc1 (centres undefined)	4	1	15	13	2.9	-4.3	-1.1	i	0.72	0.2
COCCNC(=O)c1cccc(OC2CCN(Cc3ccc(OC(F)F)cc3)CC2)c1	35	7	10	3	3.9	-13	2.4	i	0.69	1.4
COc1cc2c(cc1NC(=O)COCC(=O)O)oc1ccccc12	-9	-7	-2	5	-2.0	0.0	3.4	i	0.72	0.8
CCOc1ccc(-c2noc(CCCC(=O)NC3CCCC3)n2)cc1OC	0	1	2	6	0.5	0.1	1.8	i	0.66	-0.2
O=C(CN1C(=O)NC2(CCCC2)C1=O)Nc1ccc(Cl)cc1F	-7	3	6	16	1.4	-0.4	1.2	i	0.65	0.9
Cc1ccccc1-n1nc2c(c1NC(=O)c1cc3ccccc3oc1=O)CS(=O)C2 (centres undefined)	-8	-6	x	x	x	x	6.5	x	0.73	0.1
O=C(/C=C/c1cccs1)c1cc(F)ccc1OC(=O)N1CCOCC1	12	-1	3	10	6.7	x	7.8	x	0.7	1.5
COc1ccc(N2CCc3c(C)nc4c(OC)cc(OC)cc4c32)c(OC)c1	58*	14	x	x	x	x	-13	x	0.67	0.1
CCOC(=O)C1CCCCN1Cc1cccc(C(F)(F)F)c1 (centres undefined)	-4	1	27	10	-0.1	6.0	1.3	i	0.72	0.3
C/C(=N\NC(=O)c1ccc(O)cc1)c1ccc2c(c1)Nc1ccccc1S2	53	8	-41	-39	1.0	13	x	i	x	-0.6
O=C(CCCN1C(=O)c2ccccc2C1=O)NCc1ccco1	-9	-1	x	x	x	x	3.1	x	0.79	-0.7
Cc1nc2c([nH]c3ccc(Br)cc32)s1	12	-3	x	x	x	x	3.9	x	0.7	-0.5
Cc1nn(C)cc1/C=C/C(=O)c1ccccc1	-17	-13	x	x	x	x	5.1	x	0.65	-1.8
COc1ccccc1C(=O)OCCc1ccccc1	x	x	-34	-35	-7.8	-3.7	0.2	i	0.64	x
COC(=O)COc1cccc(NC(=O)COc2ccccc2)c1	-2	-7	x	x	x	x	1.9	x	0.74	0.0
COc1ccc(-c2c(C)cc3oc(=O)cc(-c4ccccc4)c3c2C)cc1C=O	x	x	-6	6	-1.3	-63	2.2	i	0.71	x
Cc1cccc(N2CCN(C(=O)c3cccc(N4C(=O)C5CC=CC(C)C5C4=O)c3)CC2)c1C (centres undefined)	14	0	x	x	x	x	-1.8	x	0.72	0.4
NC(=O)CC(NC(=O)Cc1cccc2ccccc12)c1ccc(N2CCN(c3ccccn3)CC2)c([N+](=O)[O-])c1 (centres undefined)	-5	-5	-2	0	4.9	-1.0	-1.7	i	0.68	0.9
CC(C)C(=O)Nc1c(-c2ccccc2F)c(=O)c2ccccc2n1C	12	-2	15	23	4.6	-1.9	-17	i	0.68	-0.8
O=C(Nn1c(O)c(C=C2N=c3ccccc3=N2)sc1=S)c1ccccc1	-8	-5	x	x	x	x	3.7	x	0.65	-0.7
O=C1NC2(CCCCC2)OC12CCCCC2	x	x	4	2	0.5	-0.4	-1.8	i	0.73	x
CN(C)c1ccc(-c2nnn(Cc3ccccc3Br)n2)cc1	-6	8	-19*	5.6*	5.8*	3.5	-2.8	i	0.65	-0.4
CCN(CC)C(=O)c1nc[nH]c1C(=O)N(CC)CC	x	1	4	-4	19	-2.5	3.0	i	0.71	-0.1
Cc1csc(SCC(=O)NC2CCS(=O)(=O)C2)n1 (centres undefined)	x	1	7	11	-0.5	-1.2	2.5	i	0.66	-1.4
Cc1ccc2c(c1)NC(=O)C(CC(=O)NCCCN1CCCCC1)O2 (centres undefined)	-9	-3	12	8	-3.2	-11	5.5	i	0.75	1.0
Oc1c(Cl)cc(Cl)cc1CNc1nc2ccccc2[nH]1	-10	-2	-55	-81	-15	-2.3	3.2	i	0.42*	0.2
O=C(O)C1C2C=CC(C2)C1C(=O)N1CCN(CCO)CC1 (centres undefined)	-1	8	x	x	x	x	4.7	x	0.67	0.9
CN(C(=O)c1cccc(NC(=O)Cc2cccc(NC(=O)C3CCN(C(=O)c4ccccc4)CC3)c2)c1)C1CCCC1	x	x	1	3	1.0	-2.7	-0.4	i	0.65	x
Cc1nc2[nH]c(=S)[nH]c2cc1Br	11	0	x	x	x	x	2.0	x	0.75	0.2
CN(C(=O)N1CCN(S(=O)(=O)c2ccccc2)CC1)c1ccccc1	6	1	8	-2	5.1	-2.0	3.6	i	0.64	0.7
C=CCn1c(Oc2ccc(C=O)cc2OCC)nc2c1c(=O)n(C)c(=O)n2C	-6	6	1	-2	4.6	-1.0	4.4	i	0.64	-0.3
Cc1cc(C(=O)N/N=C\c2cc(C(C)(C)C)c(O)c(C(C)(C)C)c2)n[nH]1	15	-8	x	x	x	5.5	x	i	x	0.7
Cc1cccc(C)c1OCC(=O)Nc1ccncc1	-8	1	5	8	-1.0	-4.7	2.1	i	0.64	-0.3
O=C(CSc1nc2ccccc2o1)N1c2ccccc2Sc2ccc(Cl)cc21	24	7	x	x	x	x	-1.8	x	0.8	-0.1
CCOC(=O)Nc1nc(-c2ccccc2)c(C(=O)c2ccccc2)s1	7	25	x	x	x	x	-1.2	x	0.78	3.8

Remaining list, next part:
SMILES	T cruzi repl	Beta apoptosis	rRNA inh HTS	rRNA inh HTS OD600	rRNA inh HTS RFP	MLL AF4-AF9 inh	UCH37 DUB inh	FGF22 binding	E coli growth	A1 inh
CC(=O)NC(C)Cc1cn(Cc2ccccc2)c2ccccc12 (centres undefined)	-1	-3	-26	-31	-18	0.9	0.2	i	0.68	-1.1
C/C(=N\S(=O)(=O)c1ccc(C)cc1)N1CCCCC1	-2	x	10	10	2.5	-6.7	x	i	x	0.1
O=C(COC(=O)c1ccc([N+](=O)[O-])o1)Nc1ccc2c(c1)OCO2	x	-5	-3	5	-2.5	3.3	8.5	i	0.56	0.1
CCn1cc(Br)c(C(=O)Nc2ccccc2C(=O)OC)n1	28	0	-27	-22	-3.5	-1.8	4.7	i	0.71	0.5
COCCCNC(=S)NCCc1ccc(F)cc1	-6	3	3	2	-2.5	-1.1	3.4	i	0.65	-1.4
N#C/C(=C\c1ccc(N2CCOCC2)cc1)c1ccccc1	-7	6	x	x	x	x	0.9	x	0.69	-1.1
COc1ccc(CN(C(C)=O)c2cccc(C)c2C)cc1	14	-8	x	x	x	x	-2.5	x	0.75	0.3
CCOC(=O)[C@@H]1[C@H]2COc3ccc(Br)cc3[C@H]2N2C(=O)N(c3ccc(Cl)cc3)C(=O)[C@@]12C	25	0	x	x	x	x	4.1	x	x	3.5
COC(=O)c1ccccc1NC(=O)C1CC(=O)N(c2ccc(C)cc2)C1 (centres undefined)	5	x	x	x	x	x	0.0	x	0.66	1.2

One compound at a time, from the list above. Screens in order: T cruzi repl	Beta apoptosis	rRNA inh HTS	rRNA inh HTS OD600	rRNA inh HTS RFP	MLL AF4-AF9 inh	UCH37 DUB inh	FGF22 binding	E coli growth	A1 inh
NC(=O)CC(NC(=O)Cc1cccc2ccccc12)c1ccc(N2CCN(c3ccccn3)CC2)c([N+](=O)[O-])c1 (centres undefined) across the screens: -5	-5	-2	0	4.9	-1.0	-1.7	i	0.68	0.9
CN(C(=O)N1CCN(S(=O)(=O)c2ccccc2)CC1)c1ccccc1 across the screens: 6	1	8	-2	5.1	-2.0	3.6	i	0.64	0.7
CCOC(=O)[C@@H]1[C@H]2COc3ccc(Br)cc3[C@H]2N2C(=O)N(c3ccc(Cl)cc3)C(=O)[C@@]12C across the screens: 25	0	x	x	x	x	4.1	x	x	3.5
